Bioassay records: PubChem, National Center for Advancing Translational Sciences (NCATS)
PMP22 txn: modulators of PMP22 gene transcription in S16 Schwann cells; Potency, µM (highest dose often 57.5 µM), without a hit: top-dose activity change, negative = inhibition, most hits filed as inhibitors; actives 2% (n = 43,000); AID 1508649; S16 Pmp22-F2sN Schwann cells (luciferase reporters placed in the Pmp22 gene), FLuc/NLuc coincidence luminescence, 24 h; active = clear falling dose curves in both reporters; inconclusive = both reporters move, but less clearly or upward; inactive = either reporter flat; the % is the NLuc reporter signal; note: % is set by controls: 0 for no effect and ±100 for the full control effect; some results filed as inactive show a strong effect at the top dose
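Rat S16 Pmp22-F2sN cells, 500-1,000/well in phenol red-free DMEM + 10% FBS, compound-treated 24 h (37C, 5% CO2). Luminescence: FLuc read, Stop&Glo added, NLuc read.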
HTT prom inh: inhibits huntingtin promoter activity; AID 1508623; HEK293 HTT promoter firefly luciferase reporter (activity 0% = vehicle and -100% = no light), 24 h; Potency, µM (titrated, usually from 57.5 µM), for the others: at the highest dose activity change, negative = inhibition, usual class: inhibitors; actives 0.93% (n = 48,000); active = well fitted inhibition curve with a large enough effect; inconclusive = small, poorly fitted or top-dose-only effect; inactive = no such curve, though single readings can be large or run the other way; note: nearly all actives have a fitted effect of over 50% in size
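Luminescence was read after Dual-Glo reagent and a 10 min room-temperature incubation. Values were normalized to vehicle (0% activity) and zero RLU (-100% activity). Reporter HEK293 cells had been exposed to compounds (up to 57.5 uM final) for 24 h.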
The depositor's hits bear a star; ? = inconclusive; · = not tested or not shown; [ ] = another dose, or the depositor's remark. Potency is the fitted concentration of half-maximal effect.

A first look:
SMILES | PMP22 txn | HTT prom inh
CCC(C(=O)Nc1cccc(Cl)c1C)n1nc(-c2ccc(C)cc2)ccc1=O (stereo not drawn) | ? | -30%
COc1ccc(OC)c(NC(=O)c2nc(S(=O)(=O)Cc3ccc(F)cc3)ncc2Cl)c1 | ? | ?

Results, from the first entry:
SMILES | PMP22 txn | HTT prom inh
CCC(C(=O)Nc1cccc(Cl)c1C)n1nc(-c2ccc(C)cc2)ccc1=O (stereo not drawn) | ? | -30%
COc1ccc(OC)c(NC(=O)c2nc(S(=O)(=O)Cc3ccc(F)cc3)ncc2Cl)c1 | ? | ?
Cc1ccc(C)c(NC(=O)Cn2c(=O)n(Cc3ccc4c(c3)OCO4)c(=O)c3ccc(C(=O)NC4CCCCC4)cc32)c1 | 4µM* | 3%
Cc1noc(Cn2c(=O)c3ccccc3n(CC(=O)Nc3ccc(C(C)C)cc3)c2=O)n1 | -8% | -21%
COc1ccc(NC(=O)c2cnc(Nc3ccc(C)c(Cl)c3)c3ccccc23)cc1OC | ? | -12%
Cc1cc(C)n(CCc2nc3c4ccccc4nc(SCc4ccc(Cl)cc4)n3n2)n1 | -5% | 0%
CCOc1ccc(NC(=O)CCc2nc3cccnc3n2Cc2ccc(OC)cc2)cc1 | -5% | ?
CCOC(=O)c1c(C)[nH]c(CCC(=O)Nc2ccc(N(CC)CC)cc2C)c1C | ? | -16%
CC(=O)c1ccc(NC(=O)CCc2nc(-c3ccc(C)cc3)no2)cc1 | ? | -14%
CC(C)(C)NC(=O)Nc1cccc(Nc2ncc(F)c(NC(C)(C)CO)n2)c1 | · | ?
Cc1ccc(Cn2c(CN3CCC(C(=O)O)CC3)cc3ccccc32)cc1 | 4% | -21%
O=C(CSc1nnc2[nH]c(=O)cc(-c3ccccc3)n12)Nc1ccc(F)cc1F | -20% | 35%[activator]
COC(=O)C(CCSC)NC(=O)c1cc2c(n(-c3ccc(C)cc3)c1=O)CC(C)(C)CC2=O (stereo not drawn) | -5% | -17%
CC(=O)Nc1cccc(C(=O)NCc2ccc3c(c2)CCN3C(=O)c2ccccc2)c1 | -9% | -23%
CNC(=O)c1cc2c(n(-c3ccc(C)cc3)c1=O)CC(C)(C)CC2=O | -7% | 1%
CCc1cccc(C)c1NS(=O)(=O)c1c(C)nc2sccn2c1=O | 7% | -9%
COc1ccc2cc(C(=O)NCc3ccc4c(c3)CCN4C(=O)c3ccccc3)[nH]c2c1 | 13% | -5%
CC(=O)OCC(=O)[C@@]1(O)[C@H](OC(C)=O)C[C@H]2[C@@H]3CCC4=CC(=O)C=C[C@]4(C)[C@@]3(F)[C@@H](O)C[C@@]21C | · | -1%
CCS(=O)(=O)N1CCc2cc(C(=O)Nc3cc(Cl)ccc3C)ccc21 | -22% | -15%
COc1ccc(CNC(=O)C(=O)NCC(c2ccc3c(c2)OCO3)N2CCOCC2)cc1 (stereo not drawn) | -1% | -3%
O=C(COc1ccc([N+](=O)[O-])cc1)Nc1nc2c(s1)CCCC2 | 1% | -13%
COc1cc(OC)c(Nc2nc3ccc(C(=O)c4ccccc4)cc3n3c(C)nnc23)cc1Cl | ? | -8%
COc1cc(OC)c(NS(=O)(=O)c2c(C(=O)N3CCC(C)CC3)c(C)n(C)c2C)cc1Cl | 0% | -19%
Cc1ccc(NC2=C(c3ccc(C(F)(F)F)cc3)C(=O)c3ccccc32)cc1F | ? | ?
COc1ccc(C2CC(=O)Nc3c2c(=O)nc2c(C)cccn32)cc1OC (stereo not drawn) | -3% | -10%
CC1CCN(C(c2ccccc2)c2sc3nc(-c4ccco4)nn3c2O)CC1 (stereo not drawn) | 73% | -20%
COc1ccc(N(C)C(=O)c2nn(-c3ccc(C)cc3)c(=O)n(C)c2=O)c(OC)c1 | -11% | -4%
COc1ccc(OC)c(C2CC(=O)c3c([nH]c(C(=O)OCc4ccc(C)cc4)c3C)C2)c1 (stereo not drawn) | -16% | ?
COc1ccc(/C=C\c2onc(C)c2S(=O)(=O)N2CCC(C(=O)Nc3ccc(F)cc3F)CC2)cc1 | -24% | ?
COc1cccc(-n2c(-c3ccc(C)cc3)cc3c2CC(C)(C)CC3=O)c1 | ? | -13%
CCc1ccc2occ(CC(=O)NCc3ccccc3)c2c1 | 10% | -22%
COc1ccccc1NC(=O)CSc1nc2nccnc2c(=O)n1CCc1c[nH]c2ccccc12 | 13µM* | -17%
CC(C)(C)c1ccccc1NC(=O)CSc1nc(-c2cccs2)cc(C(F)(F)F)n1 | ? | ?
Cc1cc(C)n(-c2nc3cc(Cl)ccc3nc2N2CCN(c3cccc(C)c3C)CC2)n1 | 20% | -10%
Cc1ccc(C)c(CN2C(=O)c3ccccc3S(=O)(=O)c3ccc(C(=O)N4CCCCC4)cc32)c1 | -25% | -14%
Cn1c(=O)cc(OCC(=O)N2CCN(c3ccc(F)cc3)CC2)c2ccccc21 | -27% | 3%
O=C(Nc1ccccc1C(=O)O)c1cccc(S(=O)(=O)N2CCCC2)c1 | ? | 54%[activator]
CCOc1ccc(NC(=O)CN2CCN(CC(=O)Nc3ccc(F)cc3F)CC2)cc1 | -18% | -6%
CCN1CCN(C(c2ccccc2)c2c(O)cc(C)n(CCOC)c2=O)CC1 (stereo not drawn) | -36% | 13%
Cc1ccc(CNC(=O)CC(C)S(=O)(=O)c2cc3c(cc2C)NC(=O)CO3)cc1 (stereo not drawn) | -10% | -6%
Cc1ccc2oc3c(c(=O)c2c1)C(c1cccc(O)c1)N(Cc1ccccc1Cl)C3=O (stereo not drawn) | ? | -28%
Cc1ccsc1CN(Cc1ccco1)C(=O)c1ccc(Cl)cc1 | 4% | -23%
NS(=O)(=O)c1ccc(NC(=O)COc2ccc(S(=O)(=O)NC3CCCCC3)cc2)cc1 | -2% | -7%
CSc1nc(Nc2ccc(C)cc2C)cc(-c2ccccc2)n1 | 62% | ?
Cc1ccccc1CSc1nc2ccsc2c(=O)n1CCC(C)C | -9% | 5%
CC(=O)N1CCOc2cc(S(=O)(=O)NC(C)c3ccccc3)c(Cl)cc21 (stereo not drawn) | -9% | -15%
CCOC(=O)c1c(NC(=O)c2cc3nc(-c4ccc(OC)cc4)cc(C(F)(F)F)n3n2)sc2c1CCC(C)C2 (stereo not drawn) | -3% | -10%
CCOc1ccc(CNC(=O)Cn2c(=O)c3cccn3c3ccc(F)cc32)cc1 | -2% | -1%
COc1ccc(C)cc1NC(=O)c1cc(S(=O)(=O)N2CCN(c3cccc(C)c3C)CC2)ccc1F | ? | 6%
CCC(=O)N1CCc2cc(Br)cc(S(=O)(=O)CCC(=O)N3CCN(c4cc(C)ccc4C)CC3)c21 | -14% | -9%
CCCN1C(=O)C2(c3ccccc31)c1c(oc3ccc(F)cc3c1=O)C(=O)N2CCCOC(C)C (stereo not drawn) | 1% | -8%
COc1ccc(NC(=O)CSc2nc3ccccc3n2CC(=O)NCc2ccc(F)cc2)cc1 | -21% | -26%
NC(N)=NS(=O)(=O)c1ccc(N)cc1 | · | -3%
COc1ccc(-c2nc3scc(CCNS(=O)(=O)c4ccc(F)c(C(F)(F)F)c4)n3n2)cc1OC | -20% | -19%
Cc1ccc(CN(C(=O)c2ccc(OCC(C)C)cc2)c2ccccn2)o1 | -15% | -2%
CN(c1ncnc2c1c(-c1ccccc1)cn2-c1ccc(F)cc1)C1CCCCC1 | -31% | ?
O=C(NC1CCCCC1)c1cc(Nc2ccccc2)nc2ccccc12 | -8% | 4%
Cc1nn(CC(=O)N2CCC(C)CC2)c(=O)c2cc3occc3n12 | -27% | -6%
COc1ccc(N(Cc2nnc3n2CCCCC3)C(=O)Nc2ccc(Cl)cc2)cc1Cl | 12% | -10%
O=C(COc1ccccc1)Nc1ccc2nc(SCC(=O)N3CCc4ccccc43)sc2c1 | ? | -13%

Structural class, the entries above with two or more sulfur atoms (six)
SMILES | PMP22 txn | HTT prom inh
CCc1cccc(C)c1NS(=O)(=O)c1c(C)nc2sccn2c1=O | 7% | -9%
CC(C)(C)c1ccccc1NC(=O)CSc1nc(-c2cccs2)cc(C(F)(F)F)n1 | ? | ?
NS(=O)(=O)c1ccc(NC(=O)COc2ccc(S(=O)(=O)NC3CCCCC3)cc2)cc1 | -2% | -7%
Cc1ccccc1CSc1nc2ccsc2c(=O)n1CCC(C)C | -9% | 5%
COc1ccc(-c2nc3scc(CCNS(=O)(=O)c4ccc(F)c(C(F)(F)F)c4)n3n2)cc1OC | -20% | -19%
O=C(COc1ccccc1)Nc1ccc2nc(SCC(=O)N3CCc4ccccc43)sc2c1 | ? | -13%

The results go on.
SMILES | PMP22 txn | HTT prom inh
COc1ccc(N2CCN(C(CNS(=O)(=O)c3ccc(OC)c(C)c3)c3ccco3)CC2)cc1 (stereo not drawn) | ? | -20%
Cc1c(-c2nc(-c3ccc4c(c3)OCO4)no2)nnn1-c1ccc(Br)cc1F | -12% | 13%
COc1ccccc1N1CCN(c2ccc3cc(S(=O)(=O)N4CCCCC4)ccc3n2)CC1 | ? | -28%
Cc1ccc(CN2CCCn3nc(C(=O)NCCC(C)C)cc3C2=O)cc1 | 2% | -22%
CCOC(=O)c1c(NC(=O)c2ccc(F)cc2)sc2c1CCC(CC)C2 (stereo not drawn) | 0% | -16%[11.5 µM]
CCOc1ccc(CCNC(=O)CSc2nnnn2-c2ccccc2)cc1OCC | 18% | -14%
CCN(Cc1ccccc1)C(=O)CCNS(=O)(=O)c1ccc2c(c1)CC(C)N2C(C)=O (stereo not drawn) | 2% | ?
COc1cccc(OC)c1C(=O)Nc1ccc(-c2nc3ncccc3o2)cc1 | -13% | -8%
COc1ccc(-c2cn3c(n2)sc2cc(C(=O)Nc4ccc(C)c(Cl)c4)ccc23)cc1 | -1% | 20%
Cc1ccc(OCc2ccc(-c3nc(C#N)c(N4CCN(c5cccc(Cl)c5)CC4)o3)o2)cc1 | 7% | -9%
COc1ccccc1/C=C/c1nc(C#N)c(NCC(C)C)o1 | -21% | 24%
Cc1ccc(Nc2ncc(C(=O)N3CCN(c4cccc(Cl)c4)CC3)c3ccccc23)cc1Cl | -14% | -3%
Cc1ccc(Nc2nnc(-c3ccc(C)c(S(N)(=O)=O)c3)c3ccccc23)cc1 | -6% | -33%
CC1=C(C(=O)Nc2cccnc2)C(c2ccc(F)cc2)n2nc(-c3cccc(C)c3)nc2N1 (stereo not drawn) | 7% | ?
COc1ccc(CCNC(=O)c2cc(-c3ccc(C)cc3)nc3n[nH]c(-c4ccc(F)cc4)c23)cc1OC | -13% | -18%
COc1ccc(NC(=O)CSc2nc(-c3ccc(OC)cc3)[nH]c2-c2ccc(OC)cc2)cc1 | 7% | ?
COc1ccc(CCNC(=O)Cn2c(C)c3cnn(-c4ccccc4)c(=O)c3c2C)cc1OC | -11% | -11%
O=C(CNC(=O)c1ccc(F)cc1)OCc1cc(=O)n2nc(C3CCCCC3)sc2n1 | 8% | -4%
O=C(Nc1cccc(Cl)c1Cl)c1cc(S(=O)(=O)N2CCC3(CC2)OCCO3)ccc1F | ? | -22%
Cc1ccn2c(=O)c(C(=O)NC(C)c3ccccc3)c(O)nc2c1 (stereo not drawn) | 16% | 2%
CC(=O)c1cccc(NC(=O)c2ccc3c(c2)c(C)c(C)n3Cc2ccc(Cl)cc2)c1 | -20% | ?
Cc1ccc(Cl)cc1NC(=O)CSC1=Nc2ccccc2C2=NC(Cc3ccccc3)C(=O)N12 (stereo not drawn) | ? | ?
CC(C)Oc1ccc(CNC(=O)c2ccc3c(c2)nc2n3CCOC2)cc1 | -1% | 36%[activator]
CC(=O)N1CCCc2cc(S(=O)(=O)N3CCC(C(=O)N(Cc4ccccc4)C(C)C)CC3)ccc21 | ? | ?
CCCCn1c(C(C)NC(=O)c2ccccc2)nc2ccccc21 (stereo not drawn) | -10% | -27%
COc1cc2c(=O)c(S(=O)(=O)c3ccc(F)cc3)cn(Cc3ccc(Cl)cc3)c2cc1OC | -32% | -7%
CCOC(=O)C1=C(CN2CCN(c3ccccc3)CC2)NC(=O)NC1c1ccc(C)cc1 (stereo not drawn) | -16% | -30%
CCc1ccc2oc(C(=O)Nc3ccccc3OC)cc(=O)c2c1 | 11% | 23%[11.5 µM]
COc1ccc(C(=O)Nc2ccc3oc(-c4cc(Cl)ccc4Cl)nc3c2)cc1Br | ? | 6%

Two compounds drawn at random from the list so far, as already listed:
SMILES | PMP22 txn | HTT prom inh
CC(=O)N1CCCc2cc(S(=O)(=O)N3CCC(C(=O)N(Cc4ccccc4)C(C)C)CC3)ccc21 | ? | ?
CN(c1ncnc2c1c(-c1ccccc1)cn2-c1ccc(F)cc1)C1CCCCC1 | -31% | ?
